Rango complex inh = Rango-importin beta binding inhibition | 340,000 compounds, 0.031% hits | Potency, µM (series often up to 92.2 µM), for inactives: at the top dose inhibition of complex formation | Rango CFP/YFP FRET sensor + importin beta, 45 min | Q14974; active = rising FRET ratio curve, often small or poorly fitted; inconclusive = mostly compound fluorescence or quenching in the first reads; inactive = flat curves in all reads;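 also: potency is read from the fitted curve at half-maximal effect; 0% = DMSO wells and 100% = buffer wells lacking importin beta; nearly all actives have a fitted effect of over 15% in size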
Target sequence (Q14974 whole entry, looked up): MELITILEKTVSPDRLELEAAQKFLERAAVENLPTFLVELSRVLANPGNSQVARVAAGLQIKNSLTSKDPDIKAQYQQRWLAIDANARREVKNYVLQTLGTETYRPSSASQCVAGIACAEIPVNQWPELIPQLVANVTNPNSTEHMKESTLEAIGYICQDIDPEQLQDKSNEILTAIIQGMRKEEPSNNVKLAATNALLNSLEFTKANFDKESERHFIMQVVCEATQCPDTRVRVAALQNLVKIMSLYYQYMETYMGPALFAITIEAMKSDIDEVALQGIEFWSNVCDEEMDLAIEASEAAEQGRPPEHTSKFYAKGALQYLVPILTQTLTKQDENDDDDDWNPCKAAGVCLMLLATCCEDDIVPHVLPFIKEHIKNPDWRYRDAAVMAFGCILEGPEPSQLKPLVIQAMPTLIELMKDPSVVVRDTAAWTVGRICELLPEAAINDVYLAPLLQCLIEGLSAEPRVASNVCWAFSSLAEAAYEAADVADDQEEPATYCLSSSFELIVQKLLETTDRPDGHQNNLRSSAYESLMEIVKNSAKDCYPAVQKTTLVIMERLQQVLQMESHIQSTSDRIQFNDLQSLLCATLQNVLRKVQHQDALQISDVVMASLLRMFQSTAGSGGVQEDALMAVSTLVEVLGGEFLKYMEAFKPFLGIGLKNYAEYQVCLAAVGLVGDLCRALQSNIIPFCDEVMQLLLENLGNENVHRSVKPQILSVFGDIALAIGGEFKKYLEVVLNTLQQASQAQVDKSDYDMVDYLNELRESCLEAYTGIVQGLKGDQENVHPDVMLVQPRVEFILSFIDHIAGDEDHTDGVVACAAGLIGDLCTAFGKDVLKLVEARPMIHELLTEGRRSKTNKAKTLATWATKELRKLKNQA
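FRET biosensor Rango (snurportin 1 IBB between N-terminal EYFP and C-terminal Cerulean), 50 nM in PBS/1 mM DTT/0.02% Tween-20/0.1% BSA, preincubated 5 min RT with compound; 0.125 microM importin beta added, 45 min RT, CFP/YFP FRET ratio read.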
miR-21 FLuc = miR-21 reporter, rising signal; HeLa miR-21 FLuc reporter, luciferase, 48 h; Potency, µM (top dose mostly 38.3 µM), inactives show at the top dose reporter change, positive = more light; 340,000 tested, under 10 active; AID 2288; active = well fitted rising curve with a large enough effect; inconclusive = small, poorly fitted or top-dose-only effect; inactive = no such curve, though single readings can be large or run the other way;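 also: % of control where 0% means no effect; miR-21 action dims this reporter so a rising signal means less miR-21 action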
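HeLa miR-21-FLuc reporter line, endogenous miR-21; 2000 cells/well in DMEM/10% FBS; compound titration up to ~40uM final, 48 h, 37 degree Celsius; luciferase detection reagent, 15 min lysis, CCD luminescence.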
Rango release inh = inhibitors of RanGTP-induced Rango-importin beta complex dissociation; 340,000 compounds, 0.071% hits; Potency, µM (doses to about 46.1 µM), without a hit: at the highest dose activity change, negative = inhibition; AID 540253; Biochemical FRET Rango-importin beta, RanGTP-induced dissociation; active means falling FRET ratio curve, often poorly fitted, with flat reads before Ran was added; inconclusive means other falling curves, or compound fluorescence or quenching; inactive means flat or rising ratio curve;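 also: potency is read from the fitted curve at half-maximal effect; % of control where 0% means no effect; nearly all actives have a fitted effect of over 45% in size; -100% = wells without RanGTP and RCC1; the record marks most hits as doubtful in a second field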
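Rango (0.1 uM)–importin beta (0.25 uM) complex; RanGTP-RCC1 trigger; 45 min RT; CFP/YFP FRET read.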
GLA inh pH 4.5 = alpha-galactosidase A (human) inhibition, pH 4.5; P06280; purified enzyme, 4-MU-alpha-Gal fluorescence, pH 4.5; activity change, negative = inhibition, % at 105 µM; 230,000 tested, under 10 active; inconclusive = small, poorly fitted or top-dose-only inhibition, or a rising curve; inactive = flat fitted curve, though single readings scatter; no compound was filed as active;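 also: 0% = full activity with enzyme and -100% = basal without enzyme; dose as in the result columns while the protocol names 77 µM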
Starred values were filed as active, the others as inactive; u = inconclusive; x = no result given; & = joins results of further samples.

SMILES,Rango complex inh,miR-21 FLuc,Rango release inh,GLA inh pH 4.5
O=C(COc1ccc(S(=O)(=O)N2CCOCC2)cc1)Nc1ccc2c(c1)OCCO2,1.9%,0.6%,-9.3%,-2.4
CC(C)CCNCC(=O)NC(c1ccccc1)c1ccccc1,-0.2%,0.4%,-5.8%,-11.1
C#CCOCCOCCOCCNc1nc(OC)nc(N2CCN(C(=O)[C@H](CCC(=O)O)n3cc(C(N)CO)nn3)CC2)n1 (some centres not stated),7.3%,x,-3.2%,x
CCCCn1c(=O)c(F)cn(Cc2ccc(OC)c([N+](=O)[O-])c2)c1=O,u,-12.7%,3.1%,1.9
Cc1nc(NC(=O)CSC2=NCCS2)sc1C(=O)N(C)C,1.6%,5.7%,-11.5%,x
O=C(O)C1C(C(=O)O)C1(c1ccccc1)c1ccccc1 (configuration not stated),-1.6%,1.0%,-1.4%,-1.7
CCc1cccc(NC(=O)Cc2ccc(OC)c(OC)c2)c1,4.4%,9.7%,-10.9%,2.2
O=C(COc1cccc(Oc2ccccc2)c1)Nc1ncccn1,-0.2%,-2.7%,5.7%,2.4

(listing goes on)
SMILES,Rango complex inh,miR-21 FLuc,Rango release inh,GLA inh pH 4.5
COc1cc(C(C)=O)ccc1OCC(O)CNCC1(N2CCCCC2)CCCCC1 (configuration not stated),2.8%,-2.3%,19.3%,-6.2
COc1cccc(CNC(=O)CCc2nc3cc(S(=O)(=O)N4CCOCC4)ccc3n2C)c1,4.7%,x,-0.2%,x
O=c1c2ccccc2nc(CSc2ncnc3nc[nH]c23)n1-c1cccc(C(F)(F)F)c1,0.5%,3.4%,-12.1%,4.6
Cc1cccc(NC(=O)c2ccc(NC(C)c3ccccc3)c([N+](=O)[O-])c2)n1 (configuration not stated),u,-7.8%,9.4%,-7.4
Cc1ccc(S(=O)(=O)CCC(=O)OCC(=O)N2CCN(c3ccccc3)CC2)cc1,-3.3%,x,-11.8%,x
N#CCCn1cc(C(=O)Nc2ccccn2)c(-c2ccccc2)n1,-1.3%,6.1%,-16.2%,x
Cc1ccc(S(=O)(=O)N(CC(=O)Nc2cccc(C)c2C)C(=O)N2CCN(C)CC2)cc1,u,x,-9.3%,x
CCOC(=O)Cn1cc(C(=O)c2cccs2)c2ccccc21,1.8%,-1.8%,5.4%,-10.4

Next compounds:
SMILES,Rango complex inh,miR-21 FLuc,Rango release inh,GLA inh pH 4.5
O=P(Cc1ccccn1)(c1ccccc1)c1ccccc1,-1.2%,1.0%,-10.4%,4.9
O=C(NCC1CCCO1)c1ccc2c(c1)N(Cc1ccccc1)CCS2 (configuration not stated),-1.8%,5.2%,31.9%,x
CC1CCc2nc(NC(=O)C3CC3)sc2C1 (configuration not stated),2.0%,-37.8%,9.3%,1.7
CCn1c(O)c(N=NC(=O)CNC(=O)c2ccco2)c2ccccc21,-3.3%,13.8%,-18.7%,0.3
CC(CCc1ccccc1)NC(=O)c1cccc(F)c1 (configuration not stated),1.9%,-5.4%,9.5%,x
O=S(=O)(Nc1cccnc1)c1cccs1,4.5%,6.4%,-4.9%,7.1
CCn1cc(C(=O)Nc2ccc(C)c([N+](=O)[O-])c2)cn1,2.1%,-14.3%,4.1%,5.7
COc1cc(/C=C(/C#N)c2ccc(F)cc2)ccc1OCc1ccc(C(=O)O)o1,-0.2%,-20.5%,-2.8%,-25.2

Remaining list, next part.
SMILES,Rango complex inh,miR-21 FLuc,Rango release inh,GLA inh pH 4.5
CC(=O)N1CCOCCOCCOCC1,-2.3%,0.6%,13.6%,-0.2
Cc1c(CC(=O)N2CCN(C(=O)C3COc4ccccc4O3)CC2)c(=O)oc2cc(O)ccc12 (configuration not stated),u,3.5%,u,x
Fc1ccc(SCCc2ccncc2)cc1,u,-2.0%&-1.1%,-7.9%&8.1%,7.3&16.0
COc1ccccc1C(C)N(C)Cc1nc(COc2ccccc2)no1 (configuration not stated),-0.2%,-5.8%,-5.2%,-13.1
Cc1cc(C)nc(N(C#N)Cc2ccc([N+](=O)[O-])cc2)n1,1.6%,-6.3%,4.4%,4.7
O=C(NC1CCCC1)c1cc2nc(-c3ccccc3)cc(-c3ccccc3)n2n1,-3.3%,2.9%,-0.4%,2.1
CC12CCC(C/C1=N/NC(=O)Nc1ccccc1)C2(C)C (configuration not stated),0.8%,5.3%,-12.7%,-4.6
COc1cccc(NC(=O)C2C3C=CC(C3)C2C(=O)O)c1 (configuration not stated),-0.2%,-10.7%,5.9%,x

Later entries:
SMILES,Rango complex inh,miR-21 FLuc,Rango release inh,GLA inh pH 4.5
O=S(=O)(c1ccccc1)N1CCN(C/C=C/c2ccccc2)CC1,-1.2%,5.1%,u,x
COc1ccc(OC)c(N=CC2=C(O)CC(C)(C)CC2=O)c1,0.0%,2.0%,-0.5%,2.9
COc1ccc(-c2nnc(Nc3ccc(OC)c(C(=O)N4CCCCC4)c3)c3ccccc23)cc1,0.7%,2.8%,-10.4%,2.2
Cc1ccc(S(=O)(=O)N2CCCCC2)cc1C(=O)Nc1cccnc1,-1.5%,-2.6%,13.0%,0.7
Cc1ccc(OCCNS(=O)(=O)c2ccc(N3CCCC3=O)cc2)cc1,-1.5%,-0.4%,4.6%,-9.2
CCOC(=O)N1CCN(C(=O)/C(=C/c2ccc(Br)cc2)NC(=O)c2ccc(OC)cc2)CC1,2.0%,-0.5%,10.3%,-14.1
Cc1c(OCC(=O)NC(Cc2c[nH]c3ccc(O)cc23)C(=O)O)ccc2c3c(c(=O)oc12)CCC3 (configuration not stated),2.2%,-0.6%,-4.9%,8.1
O=C(COC(=O)CNC(=O)c1ccc(Cl)cc1Cl)NC(=O)NCc1ccccc1,-0.8%,x,12.1%,x

The listing continues.
SMILES,Rango complex inh,miR-21 FLuc,Rango release inh,GLA inh pH 4.5
O=C(CNC(=O)c1ccccc1Br)Nc1cccc(S(=O)(=O)Nc2ccccc2Cl)c1,-0.2%,x,1.4%,x
Cc1cc(C(=O)NNc2ccc(Cl)cc2)no1,0.7%,11.3%,-12.0%,-14.2
Cc1ccc(S(=O)(=O)N2CCN(C(=O)Cn3c(=O)oc4ccccc43)CC2)cc1,-2.0%,x,0.8%,x
CC(C)[C@H](NC(=O)c1ccccc1)C(=O)OCC(=O)Nc1ccc2c(c1)OCCO2,u,-7.0%,-8.8%,-8.6
COc1cccc(CN(C)C(=O)CSC(C)C(=O)Nc2cc(C)on2)c1OC (configuration not stated),-0.4%,x,10.1%,x
COC(=O)c1ccccc1Nc1cc(C)nc2nc(C)nn12,6.8%,-14.1%,-27.2%,2.5
COC(=O)c1sccc1NC(=O)CC1C(=O)NCCN1C(=O)c1ccccc1 (configuration not stated),4.2%,5.6%,-5.1%,4.9
CC1(C)CN(c2ccccc2)N(C(=O)c2ccc(C#N)cc2)C1=O,0.8%,11.1%,5.2%,-1.0

Continued:
SMILES,Rango complex inh,miR-21 FLuc,Rango release inh,GLA inh pH 4.5
COc1cc(OC)c2c(c1)OC(c1ccc(OC)c(OC)c1)C(O)C2=O (configuration not stated),0.7%,-12.6%,-0.5%,-3.0
C=CCN(c1nc(C)c(Br)c(OC)n1)S(=O)(=O)c1ccc(C)cc1,1.1%,-10.8%,28.5%,x
O=C1CCCC/C1=N\Nc1ccc(OCc2ccccc2)cc1,-2.6%,-41.9%,6.8%,2.5
Cc1ccc(C2(COC(=O)C(C)C)CO2)c(OC(=O)C(C)C)c1 (configuration not stated),4.8%,u,3.2%,-6.7
COc1ccc(NS(=O)(=O)c2ccc(OC)c3ccccc23)cn1,0.5%,7.9%,2.8%,-7.8
NNC(=O)c1ncoc1-c1ccc(Cl)cc1,-3.8%,-2.7%,3.2%,4.4
COc1ccc(OCC(O)CN(C2CCCCC2)C2CCCCC2)cc1 (configuration not stated),0.2%,-2.6%,-7.1%,-10.6
O=C(CSc1nc(-c2ccco2)cc(C(F)(F)F)n1)NCCc1ccccc1,0.1%,-5.8%,-9.4%,-3.0

Additional compounds
SMILES,Rango complex inh,miR-21 FLuc,Rango release inh,GLA inh pH 4.5
NC1=C(Br)C(=O)c2ccccc2C1=O,1.0%,5.0%,6.4%,3.3
CCOC(=O)C1(Cc2cccc(OC)c2)CCCN(C(=O)CCSC)C1 (configuration not stated),-4.4%,-32.2%,-9.1%,x
O=C(NNc1c2ccccc2nc2ccccc12)c1ccc(O)cc1O,0.3%,-8.8%,-2.8%,0.8
CCCCN(CC)CCCNC(=O)c1cn(CC)c2ccc(S(=O)(=O)N3CCc4ccccc4C3)cc2c1=O,3.1%,1.0%&0.1%,-23.7%,-13.4
Cc1ccc(C)c(OCC(=O)Nc2ccc(N3CCOCC3)cc2)c1,-4.9%,-2.4%,4.9%,4.6
O=C(c1cccs1)N1CCN(C(=O)N2CCOCC2)CC1,u,-1.5%,-15.5%,-2.4
CC(NC(=O)Nc1ccc(F)cc1)C(c1cccs1)N1CCCC1 (configuration not stated),2.7%,-0.3%,-6.7%,-3.7
Cc1ccc2oc(C(=O)NCC(c3ccco3)N3CCCC3)c(C)c2c1 (configuration not stated),8.6%,-1.8%,14.2%,x

Continued; the last seven above are carried over.
SMILES,Rango complex inh,miR-21 FLuc,Rango release inh,GLA inh pH 4.5
CCOC(=O)C1(Cc2cccc(OC)c2)CCCN(C(=O)CCSC)C1 (configuration not stated),-4.4%,-32.2%,-9.1%,x
O=C(NNc1c2ccccc2nc2ccccc12)c1ccc(O)cc1O,0.3%,-8.8%,-2.8%,0.8
CCCCN(CC)CCCNC(=O)c1cn(CC)c2ccc(S(=O)(=O)N3CCc4ccccc4C3)cc2c1=O,3.1%,1.0%&0.1%,-23.7%,-13.4
Cc1ccc(C)c(OCC(=O)Nc2ccc(N3CCOCC3)cc2)c1,-4.9%,-2.4%,4.9%,4.6
O=C(c1cccs1)N1CCN(C(=O)N2CCOCC2)CC1,u,-1.5%,-15.5%,-2.4
CC(NC(=O)Nc1ccc(F)cc1)C(c1cccs1)N1CCCC1 (configuration not stated),2.7%,-0.3%,-6.7%,-3.7
Cc1ccc2oc(C(=O)NCC(c3ccco3)N3CCCC3)c(C)c2c1 (configuration not stated),8.6%,-1.8%,14.2%,x
COc1ccc(/C=C2\SC(=S)N(CCC(=O)N(CCO)Cc3ccccc3)C2=O)cc1OC,u,-2.6%,-20.8%,x
COc1cccc(CNn2c(-c3cccc(C)c3)nc3ccccc3c2=O)c1O,-3.2%,14.5%,1.4%,-0.5
COC(=O)[C@H](Cc1c[nH]c2ccccc12)NC(=O)NCc1ccc(OC)cc1,-4.0%,4.6%,-8.5%,x
Cc1cc(C)c2oc(-c3ccc(Cl)c(NC(=O)c4ccc(C#N)cc4F)c3)nc2c1,-0.3%,-32.6%,0.9%,5.4
O=C(COC(=O)CNC(=O)c1ccccc1)Nc1ccc(S(=O)(=O)N2CCOCC2)cc1,1.8%,3.8%,-2.3%,2.4
CC(/C=C/c1ccccc1)=N\NC(=O)Cn1cncn1,-0.2%,-0.6%,0.2%,0.8

Screening data deposited in PubChem by National Center for Advancing Translational Sciences (NCATS).

The list is partial, so the mix of outcomes need not match the whole.
